E coli growth = E. coli growth inhibition, primary screen, OD600. Escherichia coli growth, 23 h; active compounds read low. OD600 absorbance (test concentration not listed). actives 0.21% (n = 330,000). AID 1053175, 2014;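 active means OD600 absorbance below the run mean of sample wells minus 3.6 SD, in any replicate, cut at about 0.56 in these data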;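 further: stock transfer was 300 nL into about 60 µL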
Vif A3G = inhibitors of Vif binding to APOBEC3G peptide, primary screen, biochemical, TR-FRET, GST-Vif 1-94, biotin-A3G peptide, dose response retest (AID 1117319) | Virion infectivity factor (Human immunodeficiency virus type 1 group M subtype B (isolate … | actives 0.57% (n = 260,000) | inhibition, %; hits with a dose series show IC50 in µM | TR-FRET GST-Vif / biotin-A3G peptide binding; higher % means a stronger effect; test concentration not given here; strong numbers were not always called active;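 active means above the screen mean plus three standard deviations and confirmed in dose response; inconclusive means results disagree or hit not tested in dose response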;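 further: Vif residues 1-94 fused to GST binding biotinylated APOBEC3G peptide 110-148; 0% = full assay without inhibitor and 100% = GST in place of GST-Vif; retest series ran down from 100 µM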
FGF22 binding = binders of human FGF22 protein, primary screen, FGF22 synaptogenesis inhibitor project, biophysical, thermal shift, single point; calls only at 9.99 µM; recombinant FGF22 thermal shift, SYPRO orange fluorescence; percent of sucrose octasulfate shift, DMSO zero; actives 1.5% (n = 340,000); Fibroblast growth factor 22 (Homo sapiens), Q9HCT0;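 active means melting point raised past a set limit in the mean and every replicate; inconclusive means no clear call; three in four hits are not shown here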
Target sequence (Q9HCT0 whole entry, looked up): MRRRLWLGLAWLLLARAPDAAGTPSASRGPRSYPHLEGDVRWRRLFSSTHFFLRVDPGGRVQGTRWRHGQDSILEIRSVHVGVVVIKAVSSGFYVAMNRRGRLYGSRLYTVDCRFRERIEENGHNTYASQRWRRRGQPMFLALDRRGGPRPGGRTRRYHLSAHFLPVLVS
HNF4A DNA FP = change in binding of human HNF4A to DNA, primary screen, biochemical, fluorescence polarization, FITC-DNA; actives 0.3% (n = 360,000); activity change, % at 10 µM; Hepatocyte nuclear factor 4-alpha (Homo sapiens), P41235; 1 h; AID 1224865, 2016; in the data active means activity change above about 30%, passing the limit was not always enough;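 further: controls were the assay level and a saturating level of protein; the project sought stronger binding though the title names inhibitors; some compounds called inactive have numbers as strong as hits; positive values seem to mean higher polarization but the record does not say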
rRNA inh HTS = reduced GFP signal of wild-type E. coli, primary screen, bacterial rRNA inhibitor project, GFP/RFP fluorescence, OD600, single point. GFP signal change (wild-type ribosome), % (concentration not given with the values). actives 1.6% (n = 350,000). E. coli WT GFP vs humanized-ribosome RFP mutants, 24 h; active compounds read low; DMSO median 0, no signal -100;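 active means significant combined selectivity score with lowered wild-type GFP, culture density cut under 30%, mutant RFP and density less affected; inactive means any of these conditions unmet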; further: one replicate is shown; some compounds called inactive have numbers as strong as hits
ALR H2O2 inh = inhibitors of human ALR sulfhydryl oxidase, primary screen, biochemical, H2O2 detection, HRP-luminol luminescence, single point; AID 485317, 2010; inhibition, % (test concentration not listed); FAD-linked sulfhydryl oxidase ALR (Homo sapiens), P55789; purified ALR, DTT oxidation; actives 3.8% (n = 290,000);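 active means mean and each replicate at 75% or more; inconclusive means only one of the two met; inactive means neither met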;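 further: stock transfer was 7.5 nL into about 7.5 µL; 0% = neutral wells and 100% = wells with inactivated enzyme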
Target sequence (P55789 whole entry, looked up): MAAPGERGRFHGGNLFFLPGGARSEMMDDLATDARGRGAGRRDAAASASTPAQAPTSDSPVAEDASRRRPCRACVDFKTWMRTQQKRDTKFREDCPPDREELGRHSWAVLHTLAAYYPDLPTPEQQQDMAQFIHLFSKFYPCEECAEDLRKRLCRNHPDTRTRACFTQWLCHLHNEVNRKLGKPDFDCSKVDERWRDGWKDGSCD
MLL AF4-AF9 inh = inhibitors of AF4 peptide binding to AF9, primary screen, biochemical, AlphaScreen, biotin-AF4 peptide, FLAG-AF9, single point | actives 0.47% (n = 350,000) | Protein AF-9 (Homo sapiens), P42568 | AID 651704, 2012 | inhibition, % at 10 µM;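 active means every replicate reaching a set inhibition limit, whatever the replicate mean, cut at about 25% in these data; inconclusive means mean inhibition reaches that limit but some replicates miss it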;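 further: 0% = plate neutral control median and 100% = total signal loss; the record names both 10 and 1 µM as test concentration; the first replicate is given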
Target sequence (P42568 whole entry, looked up): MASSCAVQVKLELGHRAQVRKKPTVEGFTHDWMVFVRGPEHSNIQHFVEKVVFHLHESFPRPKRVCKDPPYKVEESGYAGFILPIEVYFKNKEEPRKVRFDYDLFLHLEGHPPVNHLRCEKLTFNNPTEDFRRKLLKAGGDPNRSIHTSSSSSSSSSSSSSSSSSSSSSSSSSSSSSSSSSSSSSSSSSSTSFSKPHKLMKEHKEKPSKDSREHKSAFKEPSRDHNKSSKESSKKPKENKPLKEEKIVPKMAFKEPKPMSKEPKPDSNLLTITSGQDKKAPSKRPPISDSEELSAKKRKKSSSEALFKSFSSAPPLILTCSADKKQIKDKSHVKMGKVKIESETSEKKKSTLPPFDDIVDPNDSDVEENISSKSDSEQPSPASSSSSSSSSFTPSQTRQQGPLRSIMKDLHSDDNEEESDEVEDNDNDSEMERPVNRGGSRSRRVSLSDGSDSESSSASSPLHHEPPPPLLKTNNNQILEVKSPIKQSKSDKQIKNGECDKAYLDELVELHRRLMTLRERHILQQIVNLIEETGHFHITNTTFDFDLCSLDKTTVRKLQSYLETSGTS
rRNA inh HTS OD600 = further read-out of rRNA inh HTS, marked with its call; OD600 change, %; measured here: OD600 growth;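 optical density of the mix in the first replicate; 0 = DMSO median and -100 = no signal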
rRNA inh HTS RFP = further read-out of rRNA inh HTS, marked with its call; RFP signal change, %; measured here: RFP humanized mutant strains;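 first replicate; 0 = DMSO median and -100 = no signal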
* marks the source's active call; other numbers are inactive results; i = inactive; ? = inconclusive; / = no result given; + = active, no number. This is a subset (hit frequency here may not be typical).

SMILES	E coli growth	Vif A3G	FGF22 binding	HNF4A DNA FP	rRNA inh HTS	rRNA inh HTS OD600	rRNA inh HTS RFP	ALR H2O2 inh	MLL AF4-AF9 inh
Cc1ccccc1-c1ccc2n1Cc1cnnn1-c1ccccc1-2	/	/	i	-1.3	-34	-61	-5.5	/	14
COC(=O)C1=C(c2ccc(Cl)c(C(F)(F)F)c2)C[C@@H]2CC[C@H]1N2C(=O)NCCO	/	/	i	0.2	-24	-21	-2.8	-6	0.0
COc1ccc(C(c2nnnn2-c2c(C)cccc2C)N2CCC(n3c(=O)[nH]c4ccccc43)CC2)cc1 (stereo unspecified)	/	/	i	1.6	-3	7	-1.8	/	2.2
CCCCn1c(O)c(C(C)=NCc2ccc3c(c2)OCO3)c(=O)[nH]c1=O	0.68	32%	i	4.8	7	7	0.1	-8	-3.8
CCCC(CCC)C(=O)OC[N+](C)(C)CCOC(=O)C(O)(c1ccccc1)C1CCCC1 (stereo unspecified)	0.67	9%	i	2.7	-55	-80	-15	-3	3.8
CN1CCN(Cc2ccc(N)cc2)CC1	0.69	-1%	i	0.8	13	13	-0.1	24	2.4
O=C(O)C1C2CC3CC(C2)CC1(n1ncc(N2CCC4(CC2)OCCO4)c(Cl)c1=O)C3 (stereo unspecified)	0.66	6%	i	-1.7	9	5	2.8	-5	0.6
CCNCCNc1ccc([N+](=O)[O-])c2cccnc12	0.64	16%	i	-1.2	-21	-1	3.4	-13	-1.8
COc1cc2c(cc1OC)[C@@H]1C(=O)c3ccc4c(c3O[C@@H]1CO2)C[C@H](C(C)C)O4	/	1%	i	-3.7	-16	-18	-3.0	-9	8.0
CC=Cc1ccc2n(c1=O)C[C@@H]1[C@@H](CO)[C@H](C(=O)OC)[C@H]2N1CC1CC1 (mixture of isomers)	/	/	i	/	2	0	-1.3	/	-1.3
CC1=NN=C(c2ccc(N)cc2)c2cc3c(cc2C1)OCO3	0.67	/	i	-1.8	/	/	/	0	1.5
O=C1NCN(c2ccccc2)C12CCN(C(c1cccc3ccccc13)c1nnnn1C1CCCC1)CC2 (stereo unspecified)	/	/	i	1.0	2	13	-0.1	/	-0.2
O=C(N/N=C/c1c(O)n(C2CC2)c(=S)[nH]c1=O)c1ccccc1	0.66	/	i	-0.2	-1	1	0.9	20	5.7
COCCOC(=O)C1=C(C)OC(N)=C(C(=O)OC)C12C(=O)Nc1ccccc12 (stereo unspecified)	0.68	-5%	/	-5.7	/	/	/	-7	/
COCCCn1c(N)c(C(=O)Nc2sc3c(c2C(=O)OC)CCCC3)c2nc3ccccc3nc21	0.67	?	/	9.8	/	/	/	-45	/
O=[N+]([O-])c1ccc(Cl)cc1	0.68	/	i	-3.7	-2	-5	-2.6	3	/
CN=C1CN(O)C(c2ccccc2)=c2cc(Cl)ccc2=N1	0.69	/	i	-0.4	/	/	/	-3	-6.7
Cc1c(NC(=O)C(C)OC(=O)Cc2ccccc2)c(=O)n(-c2ccccc2)n1C (stereo unspecified)	0.69	-2%	i	-1.7	10	8	-6.4	1	1.7
O=C(O)[C@H]1[C@H](CO)[C@H]2Cn3c(ccc(-c4cccnc4)c3=O)[C@@H]1N2S(=O)(=O)c1ccccc1F	/	/	i	/	1	1	-3.7	/	1.2
CCOC(=O)C1(c2ccccc2)CCN(CC(=O)c2ccc(NC(C)=O)cc2)CC1	0.64	5%	i	3.9	12	4	9.2	/	2.4
Cc1ccc(C(=O)NC(O)C(Cl)(Cl)Cl)cc1 (stereo unspecified)	0.71	/	/	0.4	/	/	/	11	/
Cc1ccsc1C(=O)C1CCCN(Cc2ccn[nH]2)C1 (stereo unspecified)	0.68	7%	i	3.0	9	4	-7.5	-2	3.3
COc1ccc(NC(=O)c2cn(CCC#N)nc2-c2ccccc2)cc1	0.65	/	i	-0.4	0	2	-0.6	-9	0.3
O=[N+]([O-])c1ccc(C(=Nc2ccccc2)N2CC2)cc1	0.69	-1%	i	0.5	16	12	3.6	/	5.7
CCC(C)n1c(O)c(C=Nc2cccc(C(F)(F)F)c2)c(=O)[nH]c1=S (stereo unspecified)	0.68	-4%	/	1.3	/	/	/	/	/
CC(C(=O)c1ccc(Cl)cc1Cl)n1cncn1 (stereo unspecified)	0.68	-1%	i	1.5	8	11	-2.8	-5	-5.2
CN(C)CCN=Cc1c(O)n(CCC2=CCCCC2)c(=O)[nH]c1=O	0.7	21%	/	2.6	/	/	/	-5	/
O=c1c2ccccc2nc(CNCC2CCCO2)n1-c1ccc(F)cc1 (stereo unspecified)	0.65	-3%	i	2.4	14	13	-4.1	-3	-2.0
CC(C(=O)c1c[nH]c2ccccc12)N1CCOCC1 (stereo unspecified)	0.61	8%	i	1.9	11	2	-1.4	-4	/
Cn1cc(C(=O)N2CCC3(CC2)OCCO3)c2c3ccccc3n(C)c2c1=O	0.61	-3%	/	-2.6	/	/	/	-5	/
C=CCN(CC#CCOc1ccccc1OC)CC=C	0.66	4%	/	/	/	/	/	-4	/
Cn1c(O)c(C=NCCc2c[nH]c3ccccc23)c(=O)n(C)c1=O	0.66	1%	/	2.2	/	/	/	4	0.5
Cc1cccc(NC(=O)COC(=O)c2cc(C)n(C3CC3)c2C)c1	0.69	-8%	i	1.6	8	-20	1.9	/	1.6
CC(C)(C)NC(=O)CN1CCCN(C(=O)COc2ccc(Cl)c3ccccc23)CC1	0.65	-11%	i	-3.0	-56	-76	-12	-15	-12
CCOc1ccccc1-n1c(O)c(C=Nc2ccc(N(CC)CC)cc2)c(=O)[nH]c1=O	/	>58µM*	/	17	/	/	/	70	/
CCC(C)C1N=C(c2ccccc2)c2cc(Cl)ccc2N(CC(=O)NCc2ccco2)C1=O (stereo unspecified)	0.76	-1%	i	1.4	7	10	1.2	-19	-4.1
O=C(Cc1ccccn1)N1CCCCN2[C@H](CO)[C@H](c3ccc(C#Cc4ccccc4)cc3)[C@H]2C1	/	/	i	/	-7	-43	7.2	/	-5.0
NCC(=O)c1ccccc1	/	/	i	-2.7	/	/	/	/	-0.2
CC(=O)NCC(=O)Nc1ccc(Br)cc1C(=O)c1ccccc1	0.66	-3%	i	-0.3	5	-8	0.2	-2	-3.9
O=Cc1cn(Cc2ccc(F)cc2Cl)c2ccccc12	0.67	/	i	-2.2	-28	-19	-21	-4	-2.3
CCc1ccccc1NC(=O)CNCc1ccccc1	0.66	2%	/	-1.3	-8	-12	-1.8	-2	-0.5
N[C@@H]1C[C@H]1c1ccccc1	/	/	i	2.0	/	/	/	8	-4.5
Cc1nn(C)c(C)c1P(=S)(c1c(C)nn(C)c1C)N(C)C	0.67	0%	/	-1.7	8	3	-7.1	-8	2.1
COc1ccc(C(=O)C(C)(C)NO)cc1	0.69	-1%	/	0.9	/	/	/	-1	/
CC(=O)Nc1ccc(CC(=O)N2CCN(Cc3ccccc3)CC2)cc1	0.64	-7%	i	3.9	9	10	-0.1	-4	0.6
CN1C(=O)C(C2c3ccccc3C(=O)N2Cc2ccc([N+](=O)[O-])cc2)C(=O)N(C)C1=O (stereo unspecified)	0.73	6%	/	0.9	/	/	/	-26	/
CC(C)C(=O)Nc1nnc(CCN(CCc2nnc(NC(=O)C(C)C)s2)[N+](=O)[O-])s1	0.66	6%	i	-1.2	7	2	-2.4	-6	-5.4
CN1CCN(c2ccc([N+](=O)[O-])c(N)c2)CC1	0.68	/	/	-1.0	/	/	/	-3	/
O=C(c1cccc2ccccc12)C1CCCN(Cc2ccon2)C1 (stereo unspecified)	0.62	-11%	+	4.2	-8	-13	1.3	-18	-4.9
CC[C@@H]1C[C@H]2CC[C@H](O2)[C@H](C)C(=O)O[C@@H](C)C[C@@H]2CC[C@@H](O2)[C@@H](C)C(=O)O[C@H](C)C[C@H]2CC[C@H](O2)[C@H](C)C(=O)O[C@@H](C)C[C@@H]2CC[C@@H](O2)[C@@H](C)C(=O)O1	/	/	i	/	-3	-21	-11	/	0.0
CN(C)C(=O)Oc1ccc(Br)cc1C(=O)Nc1ccc(F)c(Cl)c1	0.62	-4%	i	-3.6	-46	-76	-11	-26	-0.1
CCOP(=S)(OCC)Oc1cc(C)nc(C(C)C)n1	/	/	i	-2.8	/	/	/	/	-1.6
CCc1nnc(NC(=O)CCc2nc(C3=CCN(C)CC3)no2)s1	0.69	/	/	-0.3	/	/	/	-8	/
CC=Cc1ccc2n(c1=O)C[C@H]1[C@H](CO)[C@@H](C(=O)OC)[C@@H]2N1S(=O)(=O)c1cccc(C)c1 (mixture of isomers)	/	/	i	/	0	11	2.1	/	-2.8
Cc1ccc(N=C(N(C)C)P(=O)(N(C)C)N(C)C)cc1	/	-1%	i	0.6	0	5	-1.6	47	0.2
O=c1[nH]c(=O)n(Cc2ccc(F)cc2)c(O)c1/C=N/Nc1ccccc1	0.64	-7%	i	2.3	-21	6	59	99*	?
Cc1ccc2c(c1)C1CN(C)CCC1N2C(=S)Nc1cccnc1 (stereo unspecified)	0.71	-5%	i	2.2	19	16	0.9	15	-2.1
O=C1NCN(c2ccccc2)C12CCN(C(c1ccccc1OC(F)(F)F)c1nnnn1-c1ccc3c(c1)OCCO3)CC2 (stereo unspecified)	/	/	i	-2.2	14	6	-0.5	/	-12
COC(=O)C1=C(c2cccc(OCc3ccccc3)c2)C[C@@H]2CC[C@H]1N2C(=O)NCc1cc(C)oc1C(F)(F)F	/	/	i	2.5	12	11	9.6	-11	2.9
COP(=O)(OC)C(NC(C)=O)C(Cl)(Cl)Cl (stereo unspecified)	0.67	5%	i	1.4	14	-2	-0.6	/	-2.4
Additional compounds.
SMILES	E coli growth	Vif A3G	FGF22 binding	HNF4A DNA FP	rRNA inh HTS	rRNA inh HTS OD600	rRNA inh HTS RFP	ALR H2O2 inh	MLL AF4-AF9 inh
Cn1c(=O)n(C)c2cc([N+](=O)[O-])c(N3CCNCC3)cc21	0.72	-4%	i	-3.5	-3	9	5.0	-3	0.3
O=C(COC(=O)Cc1ccccc1)NC12CC3CC(CC(C3)C1)C2	0.67	1%	/	-1.5	/	/	/	7	/
O=C(/C=C/c1ccc(Br)cc1)NC(=S)N1C[C@H]2C[C@H](C1)c1cccc(=O)n1C2	0.72	/	i	-0.5	/	/	/	5	-1.6
CCC1(CC)C(=O)N(C)C(=O)NC1=NC	0.68	9%	i	-1.1	25	1	1.3	/	1.3
NP(=O)(OCCCc1ccccc1)Oc1ccc(Cl)cc1 (stereo unspecified)	0.68	/	i	-5.3	-3	-1	-2.2	2	-2.6

Some of the entries so far, comma-delimited.
SMILES,E coli growth,Vif A3G,FGF22 binding,HNF4A DNA FP,rRNA inh HTS,rRNA inh HTS OD600,rRNA inh HTS RFP,ALR H2O2 inh,MLL AF4-AF9 inh
O=C(/C=C/c1ccc(Br)cc1)NC(=S)N1C[C@H]2C[C@H](C1)c1cccc(=O)n1C2,0.72,/,i,-0.5,/,/,/,5,-1.6
NP(=O)(OCCCc1ccccc1)Oc1ccc(Cl)cc1 (stereo unspecified),0.68,/,i,-5.3,-3,-1,-2.2,2,-2.6
O=C(COC(=O)Cc1ccccc1)NC12CC3CC(CC(C3)C1)C2,0.67,1%,/,-1.5,/,/,/,7,/
Cn1c(=O)n(C)c2cc([N+](=O)[O-])c(N3CCNCC3)cc21,0.72,-4%,i,-3.5,-3,9,5.0,-3,0.3
